From PubChem
VACV mCherry inh: vaccinia inhibition (mCherry reporter); Vaccinia virus mCherry reporter infection, fluorescence; about a quarter of the inactives have no number; Potency, µM (series often up to 36.5 µM), without a hit: top-dose activity change, negative = inhibition, most hits filed as inhibitors; 310,000 compounds, 0.63% hits; AID 720579; active = well fitted inhibition curve with a large enough effect; inconclusive = small, poorly fitted or top-dose-only effect; inactive = no such curve, though single readings can be large or run the other way; tested in A549 cells; further: nearly all actives have a fitted effect of over 35% in size; inactives centre near -10
VACV Venus inh: vaccinia inhibition (Venus reporter). Vaccinia virus Venus reporter expression, fluorescence. Potency, µM (highest dose often 36.5 µM), without a hit: top-dose activity change, negative = inhibition, most hits filed as inhibitors. 330,000 compounds, 0.46% hits. AID 720580; active means well fitted inhibition curve with a large enough effect; inconclusive means small, poorly fitted or top-dose-only effect; inactive means no such curve, though single readings can be large or run the other way; tested in A549 cells; further: nearly all actives have a fitted effect of over 30% in size; inactives centre near -10
* marks the source's active call; other numbers are inactive results; i = inactive; u = inconclusive; x = no result given; & = joins results of further samples; [ ] = dose if it differs, or a comment. On the % scale 0 is the no-effect control and ±100 the full control effect; potency means the concentration at half of the fitted maximal effect.

| structure | VACV Venus inh | VACV mCherry inh |
| --- | --- | --- |
| COc1ccc(CCNC(=O)c2ccc3nc[nH]c3c2)cc1 | -8% | -18% |
| O=S(=O)(Nc1ccc2nc(-c3cccc(Cl)c3)oc2c1)c1ccccc1 | -12% | -12% |
| COc1ccc(S(=O)(=O)N2C[C@H]3CON(C)[C@H]3C[C@H]2c2ccc(-c3cccc(F)c3)cc2)cc1 | -9% | i |
| CN(C)c1ccc(C2N(c3ccc(Cl)cc3)C(=O)C3CCCN32)cc1 (stereo not drawn) | -8% | -11% |
| Cc1ccc(NC2=NCCCS2)c(C)c1C | -5% | i |
| CCOC(=O)C1CCCN(C(=O)C2CCN(S(=O)(=O)CC)CC2)C1 (stereo not drawn) | -2% | -7% |
| CS(=O)(=O)N1CCC(Oc2ccccc2C(=O)NCCCc2cccnc2)CC1 | -5% | i |
| O=C(N/N=C/c1ccccc1Cl)c1[nH]c2ccc(Br)cc2c1-c1ccccc1 | x | u |
| Clc1ccc2nc(-c3ccc(Br)o3)c(Nc3ccc4c(c3)OCCO4)n2c1 | -7% | -6% |
| COc1ccc2c3c(cccc13)C(=O)N(O)C2=O | u | -24% |
| C#CCOCCOCCOCCNc1nc(N2CCN(C(=O)[C@H](C(C)C)n3cc(CCO)nn3)CC2)nc(N2CCN(C(=O)[C@H]([C@@H](C)CC)n3cc(CCC(=O)O)nn3)CC2)n1 | -6% | i |
| COc1ccc(Nc2nc(-c3ccccc3)nc3ccccc23)cc1 | -26% | -12% |

| structure | VACV Venus inh | VACV mCherry inh |
| --- | --- | --- |
| COc1cc(OC)cc(-n2nnnc2SCC(=O)NCc2ccc3c(c2)OCO3)c1 | -13% | -22% |
| COc1ccc(CNC(=S)N/N=C/c2ccc(OC)c(OC)c2)cc1 | 11% | x |
| CNCc1c(C)nn(-c2ccccc2)c1C | 3% | 5% |
| COc1ccc(N2CCN(C(=O)c3ccccc3NC(=O)C3=C(C)OCCS3)CC2)cc1 | -20% | -15% |
| Cc1ccc(NS(=O)(=O)c2c(C)[nH]c(C)c2C(=O)N2CCCCC2)cc1Cl | -9% | -1% |
| COc1ccc(C(=O)Nc2ccc(N3CCCCC3)cc2)cc1Br | -16% | -7% |
| CCN(c1ncnc2c1cnn2-c1cc(Cl)ccc1C)C1CCCCC1 | -13% | -9% |
| COc1ccc(NS(=O)(=O)c2ccc(-n3nnc4ccccc43)c([N+](=O)[O-])c2)cc1 | -11% | -3% |
| O=C(CCCC(=O)N(CC(=O)NC1CCCCC1)Cc1ccc2c(c1)OCO2)Nc1ccccn1 | -9% | -9% |
| CCOC(=O)c1ccc2c(c1)nc(C)n2CC | -19% | -13% |
| Nc1nc(Cn2nnc(-c3ccccc3F)n2)nc(N2CCOCC2)n1 | -12% | -22% |
| O=C(Nc1ccccc1)c1cc2ccccc2c(=O)s1 | -3% | -6% |

Random excerpt: 4 entries already listed, in no set order.
| structure | VACV Venus inh | VACV mCherry inh |
| --- | --- | --- |
| CNCc1c(C)nn(-c2ccccc2)c1C | 3% | 5% |
| CN(C)c1ccc(C2N(c3ccc(Cl)cc3)C(=O)C3CCCN32)cc1 (stereo not drawn) | -8% | -11% |
| Cc1ccc(NC2=NCCCS2)c(C)c1C | -5% | i |
| Cc1ccc(NS(=O)(=O)c2c(C)[nH]c(C)c2C(=O)N2CCCCC2)cc1Cl | -9% | -1% |

Additional results:
| structure | VACV Venus inh | VACV mCherry inh |
| --- | --- | --- |
| Cc1ccc(NC(=O)CC(=O)c2ccccc2)cc1C | -9% | 22% |
| CCN1C(=O)/C(=C/c2cnn(CC)c2C)SC1=S | -6% | i |
| COc1ccc2[nH]c(C)c(C(=O)CN(C)C)c2c1 | -15%&-11% | -1%&-8% |
| CC(C)C[C@@H](CNCC(=O)[C@H](Cc1ccccc1)NC(=O)c1[nH]cnc1C(=O)N[C@H](CN)CC(C)C)NC(=O)c1nc[nH]c1C(=O)N[C@@H](CC(=O)O)C(=O)O | -12% | -14% |
| Nc1ccn(C2OC(CCl)C(O)C2O)c(=O)n1 (stereo not drawn) | u | u |
| COc1cc(N2C(=O)CSC23C(=O)N(C)c2ccccc23)cc(OC)c1OC (stereo not drawn) | 14% | 6% |
| CCN1CCN(Cc2c(O)ccc3c2O/C(=C\C=C\c2ccccc2)C3=O)CC1 | 56%[activator] | 87%[activator] |
| CCOc1ccc(C(=O)CSc2nnc3cc(C)c4ccccc4n23)cc1 | 3% | -7% |
| Cc1cc(C)cc(NC(=O)NC2CCN(CC(=O)Nc3cccc(Cl)c3C)CC2)c1 | 2% | -9% |
| CCCS(=O)(=O)NCCc1csc(-c2ccc(OC)c(OC)c2)n1 | -16% | -15% |
| Cc1[nH]c(=O)[nH]c(=O)c1/C=N/NC(=O)CCNC(=O)OC(C)(C)C | -27% | u |
| CCOc1ccc(NS(=O)(=O)c2ccc(C(=O)NCC(c3ccc(OC)cc3)N3CCCC3)cc2)cc1 (stereo not drawn) | u | -26% |

| structure | VACV Venus inh | VACV mCherry inh |
| --- | --- | --- |
| O=C(COc1ccccc1/C=C\c1[nH]c(=O)[nH]c(=O)c1[N+](=O)[O-])Nc1ccccc1 | -7% | i |
| O=C(NNC(=O)c1ccc(Cl)s1)c1csc(N2CCOCC2)n1 | -6% | -13% |
| CC1CCCC(C)N1/N=C/c1ccc(C(=O)O)cc1 (stereo not drawn) | -6% | -7% |
| Nc1ccc(C(=O)N2CCN(S(=O)(=O)/C=C/c3ccccc3)CC2)cc1[N+](=O)[O-] | -13% | -23% |
| CCn1nnnc1-c1ccc(OC)c(S(=O)(=O)Nc2ccc(C(=O)OC)cc2)c1 | -9% | -2% |
| CCOC(=O)COc1ccc(C)cc1C(=O)c1ccn2nc(-c3ccc(C)cc3)cc2n1 | -11% | -11% |
| COC(=O)c1cc(NS(=O)(=O)c2ccc(C(C)C)cc2)ccc1N1CCOCC1 | -13% | -22% |
| Clc1ccc(C(c2ccc(Cl)cc2)C(Cl)(Cl)Cl)cc1 | -21% | -17% |
| O/N=C(/c1ccccc1)c1cc2cc(Br)cc(Br)c2o1 | u | u |
| CCc1ccc2oc(-c3cc(N)ccc3O)nc2c1 | -12% | x |
| CCS(=O)(=O)Nc1ccc(Cc2ccncc2)cc1 | -15% | -26% |
| CCOC(=O)c1ccc(N2C(=O)CC(NNC(=O)c3ccc(Br)s3)C2=O)cc1 (stereo not drawn) | -12% | i |

| structure | VACV Venus inh | VACV mCherry inh |
| --- | --- | --- |
| Cc1cccc(N(CC(=O)NC(C)(C)C)C(=O)CS(=O)CC(=O)Nc2ccc3c(c2)OCO3)c1 (stereo not drawn) | -13% | -3% |
| COCCOC(=O)C1=C(C)NC(=O)NC1c1ccco1 (stereo not drawn) | -7% | -13% |
| N#CCC(=O)NNC(=S)NC(=O)C(c1ccccc1)c1ccccc1 | -3% | -8% |
| COc1cccc(-c2nc(NCc3cccnc3)c3ccccc3n2)c1O | -28% | -13% |
| O=C(COc1ccccc1F)OCc1cc(=O)n2nc(-c3cccs3)sc2n1 | -11% | -10% |
| CCn1c(CNC(=O)c2ccccc2F)cc2cc(C)ccc21 | 2% | -15% |
| Cc1ccc(-c2cc(C(=O)Oc3ccc(C#N)cc3)no2)cc1C | -1% | -3% |
| COc1cccc(NC(=O)Cc2csc(COc3cccc(C)c3)n2)c1 | -9% | -2% |
| COc1ccc(NC(=O)Nc2nnc(-c3ccccc3SCc3ccccc3)s2)cc1 | -19% | x |
| COCCNC(=O)C1(C)CCCN(C(=O)c2ccc3c(c2)CCO3)C1 (stereo not drawn) | -7% | 46%[activator] |
| COc1ccc(CCN2CC(C(=O)O)CC2=O)cc1OC (stereo not drawn) | -12% | -2% |
| O=c1c2oc3ccccc3c2ncn1Cc1ccc(Br)cc1 | -2% | 0% |

| structure | VACV Venus inh | VACV mCherry inh |
| --- | --- | --- |
| Cc1csc2ncc(C(=O)Nc3ccccc3F)c(=O)n12 | -16% | -1% |
| CCS(=O)(=O)NC(=O)C1(C)CCN1C(=O)Cc1ccc(Cl)cc1Cl (stereo not drawn) | -1% | 10% |
| O=[N+]([O-])c1cc(C(F)(F)F)ccc1NCCCCNS(=O)(=O)c1ccc(Cl)cc1 | -23% | -28% |
| Cc1ccccc1CN1C(=O)CN(S(C)(=O)=O)CC1(C)C(=O)Nc1c(C)cccc1C (stereo not drawn) | -5% | 17% |
| Cc1oc(-c2ccc(C(=O)NCCN(C)C)cc2)nc1CS(=O)(=O)c1ccccc1 | -10% | -2% |
| CS(=O)(=O)NCc1nnc(SCc2ccccc2C(F)(F)F)o1 | -5% | -9% |
| O=C(NCCCOc1cccc(CN2CCCCC2)c1)c1ccc(Cl)c(Cl)c1 | -25% | -10% |
| COCCCNC(=O)[C@@H](Cc1ccccc1)NC(=O)CC[C@H]1O[C@@H](n2ccc(=O)[nH]c2=O)[C@H](O)[C@@H]1O | -5% | 26% |
| N#Cc1c2c(c(NCCOCCO)n3c1nc1ccccc13)CCCC2 | -10% | -11% |
| O=C(COC(=O)C1CC2C=CC1C2)NCc1ccc(F)cc1 (stereo not drawn) | -12% | -16% |
| S=c1[nH]nc(-c2ccco2)n1/N=C/C=C/c1ccccc1 | -17% | -26% |
| COc1ccc(NC(=O)c2sc(SC)nc2N)cc1 | -22% | -24% |

| structure | VACV Venus inh | VACV mCherry inh |
| --- | --- | --- |
| COc1ccc(CNC(=O)CCN2C(=O)c3ccccc3S2(=O)=O)cc1 | -7% | -12% |
| CC(C)c1ccccc1NC(=O)COC(=O)C1(C)CC1(Cl)Cl (stereo not drawn) | -6% | -7% |
| Cc1ccc(S(=O)(=O)N2CCN(S(=O)(=O)N3CCC(C)CC3)CC2)cc1C | 6% | -12% |
| COc1cccc(C(=O)c2ccccc2C(=O)O)c1 | 1% | 10% |
| COc1ccc(C(=O)NC(C)Cn2nc(C)cc2C)cc1OC1CCN(C(C)=O)CC1 (stereo not drawn) | -16% | i |
| O=C(CCN1C(=O)c2ccccc2C1=O)Nc1ccc(-c2nc3ccccc3o2)cc1 | 8% | 8% |
| O=C1CC(NN2CCCCC2)C(=O)N1c1ccccc1 (stereo not drawn) | 3% | 2% |
| COCCNC(=O)CSc1ccccc1C(=O)NC1CCSc2ccccc21 (stereo not drawn) | -6% | -17% |
| Cc1nnc(NC(=O)CSc2nccn2Cc2ccccc2)s1 | -17%&4% | -8% |
| O=[N+]([O-])c1ccc(-c2ccc(S(=O)(=O)NCCN3CCCC3)cc2)cc1 | -19% | -47% |
| COc1cccc(NC(=O)CN(C)C(=O)CSc2nc3ccccc3s2)c1 | u | -16% |
| O=C(CN1C(=O)c2cccc([N+](=O)[O-])c2C1=O)N1CCN(c2ccc(F)cc2)CC1 | -5% | -10% |

| structure | VACV Venus inh | VACV mCherry inh |
| --- | --- | --- |
| COc1ccc(C(C)C(=O)c2ccc(O)cc2O)cc1 (stereo not drawn) | -12% | -11% |
| O=C(Cn1nc(C(F)(F)F)cc1C1CC1)Nc1ccccc1F | -2% | -5% |
| O=C(Nc1ccc(F)cc1F)NC1CC(=O)N(Cc2ccccc2)C1 (stereo not drawn) | -6% | x |
| CCCCC(=O)N1CCN(c2ccc(OC)cc2[N+](=O)[O-])CC1 | -6% | -15% |
| Cn1cc(CN2CCc3ccccc3C2)c2ccccc21 | -18% | u |
| O=C(c1ccc(NC2=NC3CS(=O)(=O)CC3S2)cc1)N1CCN(C(=O)c2ccco2)CC1 (stereo not drawn) | -9% | i |
| CC(=O)Oc1ccccc1Cn1c(C)c(C(=O)NCc2ccc(F)cc2)sc1=O | -11% | 3% |
| Cc1ccc(NC(=O)C2CCN(C(=O)NC3CCCCC3)CC2)cc1Cl | u | i |
| O=C(NC(=S)N(CCc1ccccc1)CCc1ccccc1)c1ccco1 | -25% | -3% |
| CS(=O)(=O)N(CCc1ccccc1)CC(=O)N1CCCCCC1 | -11% | i |
| CCN(CC)c1cccc(OCC(=O)N(C)CCC#N)c1 | 102%[activator] | 53%[activator] |
| CC(=O)Nc1ccc(S(=O)(=O)NCc2ccccn2)cc1 | -11% | -1% |

| structure | VACV Venus inh | VACV mCherry inh |
| --- | --- | --- |
| COc1ccc(/C=C(\NC(=O)c2ccco2)C(=O)NCc2ccco2)cc1 | 7% | i |
| CN1CCN(S(=O)(=O)c2ccc(Nc3ccc(F)cc3)c([N+](=O)[O-])c2)CC1 | -13% | u |
| COC(=O)c1ccc(CN2CCN(Cc3ccccc3)C(CCO)C2)cc1 (stereo not drawn) | 1% | i |
| COC(=O)C1C(O)C(C)C(O)C(C)(O)/C=C\C=C(/C)C(=O)Nc2c(C)c(OC(C)=O)c3c(c2O)C(=O)C(C)=C2OCOC(=C23)/C(C)=C/C(C)(O)C(O)C(C)C1O (stereo not drawn) | -4% | -19% |
| CCOc1ccc(N(C(=O)c2snc(C(N)=O)c2N)C(C(=O)NCC2CCCO2)c2c[nH]c3ccccc23)cc1 (stereo not drawn) | -20% | -19% |
| CCCc1cc(C(=O)N2CCN(c3ccc(C(F)(F)F)cn3)CC2)sc1C | -10% | i |
| O=c1[nH]cccc1-c1nc2ccccc2n1Cc1cccc(F)c1 | -15% | i |
| O=C(CCN1CCN(c2ccccc2)CC1)NNC(=O)c1ccccc1 | -10% | -9% |
| CC(C)c1cc(Cn2c3ccccc3c(=O)n2C(C)CBr)on1 (stereo not drawn) | 2% | 3% |
| CCN(C1CCCCC1)S(=O)(=O)c1ccc(S(=O)(=O)NCCc2ccncc2)cc1 | -10% | -16% |
| COc1ccc(-n2c(=O)c3ccccc3c3ccccc3c2=O)cc1 | -24% | -13% |
| CCOC(=O)[C@H]1[C@H]2COc3ccc(Cl)cc3[C@@H]2N2C(=O)CN(C)C(=O)[C@@]12C | -5% | i |
| COc1ccc2c([N+](=O)[O-])c(Cl)[nH]c2c1 | -1% | i |
| O=C(Nc1ccccc1)c1c2c(nc3ccccc13)CCCC2 | 0% | -8% |
| COc1ccc(CCNC(=O)CN(c2ccc(C)cc2)S(=O)(=O)c2ccc(OC)cc2)cc1 | -3% | 3% |
